TRPML1 inh – human mucolipin-1 channel inhibition; 390,000 compounds, 0.02% hits; TRPML1-inducible cells, Ca2+ dye fluorescence, FDSS; stronger effect = lower value; inhibition of EC80 agonist-evoked calcium signal; AID 624415; Q9GZU1; activity change, negative = inhibition, % (no concentration beside the values); in the data active means activity change below about -50%; inconclusive means about -30% to -50%; inactive means above about -30%;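 note: stimulus is agonist 54-4 at its EC80 concentration; % is set by controls: 0 for no effect and ±100 for the full control effect; compound concentration not given in the record; the text of the record puts the active cut at -80%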
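Tet-induced TRPML1-DL cells loaded with Ca8 no-wash calcium dye were read kinetically on FDSS. Compound addition was followed by EC80 agonist 54-4 (4 uM final); inhibition was read over 110 s.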
Sfp inh – inhibitors of Bacillus subtilis Sfp phosphopantetheinyl transferase; Q9F4F7; Biochemical Sfp PPTase activity, qHTS; Potency, µM, inactives show max response, negative = inhibition, usual class: inhibitors; 310,000 compounds, 3.5% hits; active = well fitted inhibition curve with a large enough effect; inconclusive = small, poorly fitted or top-dose-only effect, or another doubt; inactive = no such curve, though single readings can be large or run the other way;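 note: the enzyme is Sfp with the accession as filed and its product quenches rhodamine fluorescence; potency is the fitted concentration of half-maximal effect; 0% = enzyme reaction without inhibitor and -100% = no enzyme wells; top concentration of the series not given in the record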
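Step 1, compound plus 15 nM Sfp-PPTase, 15 min, room temperature. Step 2, add rhodamine-CoA (5 uM) and BHQ-2-YbbR (12.5 uM). Step 3, read 525/598 nm fluorescence at 0 and 30 min.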
gsp antag – antagonizes gsp, the McCune-Albright syndrome mutation | AID 624288 | gsp-mutant cells, cAMP HTRF, 30 min; control for the full effect not named in the record | Potency, µM (highest dose often 76.9 µM), for the others: at the highest dose activity change, negative = inhibition, most hits filed as inhibitors | 340,000 compounds, 0.4% hits; active = falling curve of any shape with a large fitted effect; inconclusive = falling curve, mostly with a smaller effect; inactive = flat or rising curve; cell line not stated here;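 note: intracellular cAMP measured with PDE inhibitor Ro 20-1724 present during compound exposure; potency is the fitted concentration of half-maximal effect; % is set by controls: 0 for no effect and ±100 for the full control effect; nearly all actives have a fitted effect of over 65% in size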
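HTRF cAMP read-out (cAMP-d2 plus anti-cAMP antibody-K in lysis buffer, 30 min RT). Before lysis, cells are exposed to compounds with […] for 30 min at 37C in DPBS containing Ca/Mg, BSA and Tween 20.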
Menin-MLL FL inh – displaces fluorescein MLL peptide from human menin; Fluorescence polarization, fluorescein-MLL peptide displacement from menin; AID 1766; FP activity change, % at 61.4 µM; 290,000 tested, under 10 active; inconclusive = falling polarisation curve, or a change in total fluorescence; inactive = total fluorescence flat and polarisation flat or rising; no compound was filed as active; the % refers to the polarisation; negative = inhibition;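 note: % of control where 0% means no effect; inhibitors lower the polarisation; unlabelled MLL peptide was the positive control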
ClpP mod – qHTS Assay for Activators of ClpP | AID 651965, 2013 | Potency, µM (top dose mostly 57.5 µM), inactives show at the highest dose activity change, negative = active | purified B. subtilis ClpP, FRET peptide cleavage, 20 min | ATP-dependent Clp protease proteolytic subunit (Bacillus subtilis (strain 168)), P80244 | 340,000 compounds, 1.9% hits; active = well fitted falling curve with a large enough effect; inconclusive = small, poorly fitted or top-dose-only effect; inactive = no such curve, though single readings can be large or run the other way; note: potency is the fitted concentration of half-maximal effect; the source files actives as falling curves though it sought activators and does not explain the sign; nearly all actives have a fitted effect of over 65% in size; many hits overshoot -100%
Target sequence (P80244 whole entry, looked up): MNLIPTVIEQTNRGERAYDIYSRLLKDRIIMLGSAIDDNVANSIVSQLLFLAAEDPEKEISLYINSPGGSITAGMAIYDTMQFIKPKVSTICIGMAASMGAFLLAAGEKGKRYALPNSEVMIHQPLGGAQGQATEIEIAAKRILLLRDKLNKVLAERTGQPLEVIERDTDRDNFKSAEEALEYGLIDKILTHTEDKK
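FRET quenching reversal measured ClpP activation: 10 microg/mL B. subtilis ClpP at pH 8 with the FRET-FV decapeptide, read at 430 nm after 320 nm excitation. The 20-min minus 0-min signal was scaled between DMSO/no-enzyme wells and ADEP (5.8 microM final).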
gsp ag – gsp mutant agonism; gsp mutant cells, cAMP HTRF, 30 min; control for the full effect not named in the record; 340,000 compounds, 0.13% hits; Potency, µM (series often up to 76.9 µM), inactives show at the highest dose activation (cAMP increase), most hits filed as activators; active = well fitted activation curve with a large enough effect; inconclusive = small, poorly fitted or top-dose-only effect, or another doubt; inactive = no such curve, though single readings can be large or run the other way; cell line not stated here;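 note: phosphodiesterase inhibitor Ro 20-1724 added with compounds to block cAMP breakdown; potency is the fitted concentration of half-maximal effect; nearly all actives have a fitted effect of over 60% in size; about a fifth of the inactives were tested at one dose only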
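Cells in DMEM/10% FBS with G418 were pretreated with compounds in DMSO plus […] (300 uM stock) for 30 min at 37C. cAMP was measured by HTRF (cAMP-d2 plus anti-cAMP antibody-K) after 30 min at room temperature.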
TRPV1 PAM – potentiators of human vanilloid receptor 1 (TRPV1); Q8NER1; TRPV1-expressing cells, Fluo-8 calcium influx, capsaicin EC20 potentiation; host cell line not named in the record; control for the full effect not named in the record; potentiation, % at 8.33 µM; 320,000 compounds, 0.02% hits; AID 540277; active means potentiation above 80%; inconclusive means 30% to 80%; inactive means below 30%; note: 0% is about no effect
Target sequence (Q8NER1 whole entry, looked up): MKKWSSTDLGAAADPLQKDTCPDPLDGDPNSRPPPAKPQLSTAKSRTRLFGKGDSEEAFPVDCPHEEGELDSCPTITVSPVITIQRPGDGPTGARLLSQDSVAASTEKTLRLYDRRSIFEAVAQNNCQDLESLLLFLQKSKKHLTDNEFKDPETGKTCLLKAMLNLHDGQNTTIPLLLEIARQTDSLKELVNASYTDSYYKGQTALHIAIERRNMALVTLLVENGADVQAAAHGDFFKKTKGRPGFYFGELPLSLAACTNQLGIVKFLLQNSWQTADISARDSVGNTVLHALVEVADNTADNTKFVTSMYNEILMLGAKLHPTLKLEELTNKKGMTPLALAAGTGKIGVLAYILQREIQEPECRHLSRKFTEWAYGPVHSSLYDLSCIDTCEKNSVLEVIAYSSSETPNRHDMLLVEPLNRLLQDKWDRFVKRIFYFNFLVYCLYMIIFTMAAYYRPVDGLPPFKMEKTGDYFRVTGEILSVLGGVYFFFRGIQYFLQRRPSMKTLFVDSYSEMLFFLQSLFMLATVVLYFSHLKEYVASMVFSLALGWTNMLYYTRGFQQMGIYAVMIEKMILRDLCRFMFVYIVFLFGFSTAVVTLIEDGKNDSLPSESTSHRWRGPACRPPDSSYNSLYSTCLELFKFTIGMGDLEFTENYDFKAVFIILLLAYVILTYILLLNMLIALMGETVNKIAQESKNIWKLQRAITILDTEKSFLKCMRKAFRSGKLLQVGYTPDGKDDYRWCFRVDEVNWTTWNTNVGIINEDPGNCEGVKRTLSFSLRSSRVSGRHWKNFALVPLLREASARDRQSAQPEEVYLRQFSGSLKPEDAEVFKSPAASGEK
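Fluo-8 calcium influx in TRPV1-expressing cells, kinetic read (ex 480/em 520 nm). Compound added and read 3 min for agonist activity, followed by capsaicin at EC20 final and 2 min further read for enhancement.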
* = called active by the depositor; [ ] = remark or other dose.

`CC(C)=C1C2CCC1C1C(=O)N(CCc3ccccc3)C(=O)C21` (stereo not given) gave TRPML1 inh -19, Sfp inh 11%, gsp antag 19%, Menin-MLL FL inh 3.7, ClpP mod -0.5%, gsp ag 6% and TRPV1 PAM -7.
`Cc1ccccc1NC(=S)NC(=O)C1CCCCC1` gave TRPML1 inh 0, Sfp inh -7%, gsp antag -3%, ClpP mod -0.8%, gsp ag -12% and TRPV1 PAM 3.
Screening COc1ccccc1CCNC(=O)Cn1ccc2cc(S(=O)(=O)N3CCC(C)CC3)ccc21 returned TRPML1 inh -16, Sfp inh 3%, gsp antag -25%, Menin-MLL FL inh 2.0, ClpP mod -2.3%, gsp ag -3% and TRPV1 PAM -3.
O=C(C1CCN(S(=O)(=O)N2CCCC2)CC1)N1CCCCC1 was read as TRPML1 inh -14, Sfp inh 3%, gsp antag -3%, Menin-MLL FL inh -0.1, ClpP mod -0.6%, gsp ag -43%[inhibitor] and TRPV1 PAM 4.
COc1ccc2nc3cc([N+](=O)[O-])ccc3c(NNc3ccc([N+](=O)[O-])cc3)c2c1 was read as TRPML1 inh 4, gsp antag -4%, ClpP mod -2.8% and gsp ag -1%.
Screening O=C(c1cccc(N2C(=O)c3ccccc3C2=O)c1)N1CCCC(C(F)(F)F)C1 (stereo not given) returned TRPML1 inh 3, gsp antag -11%, ClpP mod -0.5%, gsp ag 6% and TRPV1 PAM -3.
CCOC(=O)C1=C(COC(=O)/C=C/c2ccccc2Cl)NC(=O)NC1C (stereo not given) was read as TRPML1 inh 0, Sfp inh -7%, gsp antag -9%, ClpP mod -0.8%, gsp ag -54%[inhibitor] and TRPV1 PAM 14.
Screening C/C(=N\NC(=O)C1COc2ccccc2O1)c1ccc(Cl)s1 (stereo not given) returned TRPML1 inh 6, Sfp inh 26%, gsp antag -5%, Menin-MLL FL inh 1.1, gsp ag 11%[15.4 µM] and TRPV1 PAM -3.
COc1ccccc1C1CC(c2ccc(NS(C)(=O)=O)cc2)=NN1C(=O)c1ccccc1 (stereo not given) was read as TRPML1 inh 0, Sfp inh -14%, gsp antag inconclusive, Menin-MLL FL inh 2.6, ClpP mod -4.1%, gsp ag -12% and TRPV1 PAM -15.
O=C(OC(C(=O)NCc1ccc(F)cc1)c1ccccc1)c1ccco1 (stereo not given) was read as TRPML1 inh -1, Sfp inh 2%, gsp antag -9%, ClpP mod -2.0%, gsp ag 9%[15.4 µM] and TRPV1 PAM 4.
N#Cc1cccc(C(c2nnnn2C2CCCC2)N2CCCCCC2)c1 (stereo not given) was read as TRPML1 inh 5, Sfp inh 12%, gsp antag -25%, Menin-MLL FL inh 3.4, ClpP mod -4.1%, gsp ag -34%[inhibitor] and TRPV1 PAM -10.
Screening Cc1cccc(NC(=S)NNC(=O)c2ccc(O)cc2O)c1C returned TRPML1 inh 26, Sfp inh 11%, gsp antag 3%, Menin-MLL FL inh 1.3, gsp ag inconclusive and TRPV1 PAM -19.
`CCNC(=S)NCC` gave TRPML1 inh 0, gsp antag 12%, ClpP mod 2.0% and gsp ag -6%.
For COc1ccc(S(=O)(=O)N2CCCCCC2)cc1NC(=O)c1ccccc1F the results were TRPML1 inh 78, gsp antag -1%, ClpP mod -25%, gsp ag 1% and TRPV1 PAM 6.
For CCCCNC(=O)N1CCN(c2ccccc2OC)CC1 the results were TRPML1 inh -1, Sfp inh 17%, gsp antag 6%, Menin-MLL FL inh 0.1, gsp ag 26% and TRPV1 PAM 2.
CC(C)C(NC(=O)c1cccs1)C(=O)NC1CCCCC1 (stereo not given) was read as TRPML1 inh -11, Sfp inh 11%, gsp antag 10%, Menin-MLL FL inh -0.5, ClpP mod 2.3%, gsp ag -107%[inhibitor] and TRPV1 PAM 5.
CCN(c1ccc(NC(=O)COC(=O)/C=C/c2ccco2)cc1)C(C)C was read as TRPML1 inh -9, gsp antag -9%, ClpP mod 0.9% and gsp ag -3%.
For FC(F)Oc1ccc(NC(=S)NCc2nc3ccccc3[nH]2)cc1 the results were TRPML1 inh -13, Sfp inh 14%, gsp antag 10%, Menin-MLL FL inh 5.1, gsp ag -14%[15.4 µM] and TRPV1 PAM inconclusive.
Screening CC1(C)CC(=O)C(C=Nc2ccc(C(=O)c3ccccc3)cc2N=CC2=C(O)CC(C)(C)CC2=O)=C(O)C1 returned TRPML1 inh 1, Sfp inh -89%, gsp antag -5%, Menin-MLL FL inh inconclusive, gsp ag 0% and TRPV1 PAM -10.
Screening CCC(C)N(C(=O)Cn1nnc2ccccc21)C(C(=O)Nc1ccc(F)cc1)c1cccc(OC)c1 (stereo not given) returned TRPML1 inh 14, Sfp inh 0%, gsp antag 7%, Menin-MLL FL inh -5.2, ClpP mod 0.6%, gsp ag -37%[inhibitor] and TRPV1 PAM 5.
`O=C(c1cccc([N+](=O)[O-])c1)N1CCCC(C(=O)N2CCCCCC2)C1` (stereo not given) gave TRPML1 inh -9, Sfp inh 10%, gsp antag 3%, Menin-MLL FL inh 2.9, gsp ag -1%[15.4 µM] and TRPV1 PAM -51.
`COc1ccc(C(=O)NC2=NCCS2)cc1` gave TRPML1 inh 22, Sfp inh -3%, gsp antag -2%, Menin-MLL FL inh -3.9, gsp ag 2% and TRPV1 PAM 25.
For CCN1C(=O)N/C(=C/c2cc(C)n(Cc3ccccc3)c2C)C1=O the results were TRPML1 inh 3, Sfp inh -11%, gsp antag -7%, Menin-MLL FL inh 8.8, ClpP mod -7.9%, gsp ag 11% and TRPV1 PAM -4.
Screening COc1ccc(Cc2nc3ccc(S(N)(=O)=O)cc3[nH]2)cc1OC returned TRPML1 inh 7, Sfp inh 12%, gsp antag 4%, Menin-MLL FL inh 4.9, ClpP mod -4.2%, gsp ag 29% and TRPV1 PAM 20.
`Cc1c(C)c2ccc(OCc3ccc(C(=O)O)o3)c(C)c2oc1=O` gave TRPML1 inh -1, Sfp inh 8%, gsp antag -24%, Menin-MLL FL inh 1.3, ClpP mod inconclusive, gsp ag 0% and TRPV1 PAM 12.
`OCCCCNCc1cc(Br)ccc1OCc1ccccc1` gave TRPML1 inh 20, Sfp inh 8%, gsp antag 3%, Menin-MLL FL inh -5.2, ClpP mod 1.2%, gsp ag -16% and TRPV1 PAM 8.
`CCCn1c(SCC(=O)N2CCN(c3ccccc3)CC2)nc2ccccc2c1=O` gave TRPML1 inh 3, Sfp inh 6%, gsp antag -20%, Menin-MLL FL inh 4.4, ClpP mod -2.2% and gsp ag 6%.
COc1ccccc1NC(=O)COC(=O)c1ccccc1SCC(=O)N1CCCC1 was read as TRPML1 inh -14, gsp antag -2%, ClpP mod -2.4%, gsp ag -13%[15.4 µM] and TRPV1 PAM -7.
For O=C(O)c1cc(NS(=O)(=O)c2ccc(NCc3ccccc3)c([N+](=O)[O-])c2)cc(C(=O)O)c1 the results were Sfp inh 26%, gsp antag 2%, Menin-MLL FL inh -1.0, ClpP mod 0.8%, gsp ag -2% and TRPV1 PAM -22.
For O=C(CC1C(=O)NCCN1Cc1ccccc1C(F)(F)F)NC1CCCC1 (stereo not given) the results were TRPML1 inh 1, Sfp inh -9%, gsp antag 4%, Menin-MLL FL inh -0.2, ClpP mod -4.7%, gsp ag -22% and TRPV1 PAM 26.
`COc1ccc(OC)c(-c2nc(CN3CCCCC3c3cccnc3)c(C)o2)c1` (stereo not given) gave TRPML1 inh -11, Sfp inh 16%, gsp antag -17%, Menin-MLL FL inh -2.6, gsp ag 13%[15.4 µM] and TRPV1 PAM 0.
For Cc1cccc(NC(=O)COC(=O)c2ccccc2SCC(=O)N2CCCC2)c1 the results were TRPML1 inh 1, Sfp inh 11%, gsp antag -1%, ClpP mod -3.6%, gsp ag -67%[inhibitor] and TRPV1 PAM 19.
For COc1ccc(NC(=O)c2sc3nc(-c4cccnc4)ccc3c2N)cc1 the results were TRPML1 inh 8, Sfp inh -26%, gsp antag -1%, Menin-MLL FL inh inconclusive, gsp ag -1%[15.4 µM] and TRPV1 PAM 8.
Screening O=C(c1cc(Cl)nc2ccccc12)N1CCN(S(=O)(=O)c2cccc(C(F)(F)F)c2)CC1 returned TRPML1 inh 48, gsp antag -3%, gsp ag 14%[15.4 µM] and TRPV1 PAM -4.
For CCC(=O)NC1(C(F)(F)F)C(=O)Nc2c1c(=O)[nH]c(=O)n2Cc1ccco1 (stereo not given) the results were TRPML1 inh 26, Sfp inh 0%, gsp antag 7%, Menin-MLL FL inh 0.4, ClpP mod 2.6% and gsp ag 4%.
For Cc1ccc(NS(=O)(=O)c2cc(C(=O)Nc3cccc(N(C)S(C)(=O)=O)c3)ccc2C)c(C)c1 the results were TRPML1 inh 0, Sfp inh 1%, gsp antag -40%, Menin-MLL FL inh 2.6, ClpP mod -4.8%, gsp ag -14% and TRPV1 PAM 1.
Screening O=[N+]([O-])c1cnc(Sc2ccncn2)c([N+](=O)[O-])c1 returned TRPML1 inh 72, ClpP mod -0.8% and gsp ag -24%.
For O=c1cc(Cc2ccccc2)[nH]c(=S)[nH]1 the results were TRPML1 inh -15, Sfp inh -30%, gsp antag -2%, Menin-MLL FL inh 0.7, ClpP mod 2.1%, gsp ag 15% and TRPV1 PAM -2.
For N#CC1=C(N)Oc2n[nH]c(-c3cccs3)c2C1c1ccsc1 (stereo not given) the results were TRPML1 inh 1, Sfp inh -3%, gsp antag 4%, Menin-MLL FL inh 1.2, ClpP mod -1.0%, gsp ag 0% and TRPV1 PAM -6.
`Cn1c(=O)[nH]c(=O)c2c1nc(NCc1ccccc1)n2CCCc1ccccc1` gave TRPML1 inh -6, Sfp inh 5%, gsp antag 9%, Menin-MLL FL inh -0.5, ClpP mod 3.4%, gsp ag 16% and TRPV1 PAM -5.
Screening CC(=O)n1nc(-c2cccnc2)nc1NCc1cccs1 returned Sfp inh 26%, gsp antag -32%, Menin-MLL FL inh -1.4, ClpP mod 2.9%, gsp ag 2% and TRPV1 PAM -2.
Screening CN(C)C(=O)c1cc(C(=O)c2ccc(F)cc2C(F)(F)F)c[nH]1 returned TRPML1 inh 2, Sfp inh -16%, gsp antag 5%, Menin-MLL FL inh -4.5, gsp ag -1% and TRPV1 PAM -2.
For CCOc1ccc2nc(NC(=O)CSc3nnnn3C3CCCCC3)sc2c1 the results were TRPML1 inh -11, Sfp inh 23%, gsp antag -5%, Menin-MLL FL inh 7.1, ClpP mod -3.5%, gsp ag 4% and TRPV1 PAM 3.
Screening CC(=O)Nc1cccc(C(=O)NNC(=O)c2ccc(NS(=O)(=O)c3cccs3)cc2)c1 returned TRPML1 inh -17, ClpP mod -0.3% and gsp ag -69%[inhibitor].

Assay outcomes from PubChem.

Random draw from the library, and some 4.9% of all compounds hit somewhere here.
